From PubChem BioAssay
D2 ag = human D2 receptor agonism in beta-arrestin assay. DiscoveRx PathHunter D2 beta-arrestin, luminescence, 90 min; 100% = 57 uM dopamine signal. activation, % (no concentration beside the values). 360,000 tested, 0.084% active. AID 624465; in the data active = activation above about 40%; inconclusive = about 15% to 40%; inactive = below about 15%; also: compound concentration not given in the record; the text of the record calls up to 30% inactive
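Agonist mode: compounds alone added to overnight-plated D2 PathHunter cells for 90 min at 37 C, with 57 uM final dopamine (EC100) defining full response. Beta-arrestin recruitment detected by chemiluminescent reagent, read after 1 h at ambient temperature.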
Sfp inh = Sfp phosphopantetheinyl transferase inhibition; 310,000 tested, 3.5% active; AID 1490; Potency, µM, without a hit: max response, negative = inhibition, hits mostly inhibitors; Biochemical Sfp PPTase activity, qHTS; active = well fitted inhibition curve with a large enough effect; inconclusive = small, poorly fitted or top-dose-only effect, or another doubt; inactive = no such curve, though single readings can be large or run the other way;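 also: the enzyme is Sfp with the accession as filed and its product quenches rhodamine fluorescence; potency is read from the fitted curve at half-maximal effect; 0% = enzyme reaction without inhibitor and -100% = no enzyme wells; top concentration of the series not given in the record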
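With Hepes-Na pH 7.6 buffer containing 10 mM MgCl2, Sfp (15 nM) modified BHQ-2-YbbR (12.5 uM) using rhodamine-CoA (5 uM). Two reads 30 minutes apart at 525/598 nm yielded each well's rate.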
TRPV1 potentiator = enhances activation of the human vanilloid receptor TRPV1 | Q8NER1 | TRPV1-expressing cells, Fluo-8 calcium influx, capsaicin EC20 potentiation; host cell line not named in the record; control for the full effect not named in the record | potentiation, % at 8.33 µM | 320,000 tested, 0.02% active | AID 540277; active means potentiation above 80%; inconclusive means 30% to 80%; inactive means below 30%; also: 0% is about no effect
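TRPV1-expressing cells were cultured overnight at 35.5C and loaded with Fluo-8 calcium dye for 40 to 90 min at room temperature. After a 10 s baseline, compound was added and calcium influx was read kinetically for 3 min (ex 480/em 520 nm).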
Six1-Eya2 inh = inhibitors of human Six1/Eya2 interaction. activity change, % (no concentration beside the values). AlphaScreen GST-Six1/His-Eya2 binding, biochemical; hits give low values; control for the full effect not named in the record. 360,000 tested, 0.56% active. Q15475+O00167; in the data active = activity change below about -65%; inconclusive = about -30% to -65%; inactive = above about -30%; also: % is scaled to controls: 0 for no effect and ±100 for the full control effect; compound concentration not given in the record
Target sequence (O00167 whole entry, looked up): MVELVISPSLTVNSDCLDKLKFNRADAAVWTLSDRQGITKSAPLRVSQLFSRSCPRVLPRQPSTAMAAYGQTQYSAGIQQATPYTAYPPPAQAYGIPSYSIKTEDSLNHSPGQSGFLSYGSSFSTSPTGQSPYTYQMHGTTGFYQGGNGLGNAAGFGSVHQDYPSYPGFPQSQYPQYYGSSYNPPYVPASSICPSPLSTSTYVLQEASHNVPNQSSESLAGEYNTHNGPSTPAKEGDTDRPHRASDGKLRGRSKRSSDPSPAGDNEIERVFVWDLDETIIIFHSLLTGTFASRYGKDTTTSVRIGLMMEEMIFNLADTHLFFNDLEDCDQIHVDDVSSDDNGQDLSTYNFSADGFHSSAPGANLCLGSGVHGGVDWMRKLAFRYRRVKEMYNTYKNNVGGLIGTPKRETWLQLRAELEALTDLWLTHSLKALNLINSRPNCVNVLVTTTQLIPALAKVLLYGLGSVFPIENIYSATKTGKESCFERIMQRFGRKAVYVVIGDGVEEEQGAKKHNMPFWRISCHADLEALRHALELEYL
Target sequence (Q15475 whole entry, looked up): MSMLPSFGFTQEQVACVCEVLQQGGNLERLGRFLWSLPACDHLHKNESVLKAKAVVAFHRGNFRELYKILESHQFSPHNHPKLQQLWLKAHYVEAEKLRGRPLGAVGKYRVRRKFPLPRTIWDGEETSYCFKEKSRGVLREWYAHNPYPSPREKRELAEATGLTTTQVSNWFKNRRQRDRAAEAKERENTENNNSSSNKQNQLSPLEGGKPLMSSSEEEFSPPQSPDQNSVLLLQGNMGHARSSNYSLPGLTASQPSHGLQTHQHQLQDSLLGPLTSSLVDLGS
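AlphaScreen with GST-Six1 and His-Eya2 (5X mix: 250 nM and 500 nM), glutathione donor and nickel acceptor beads; buffer 50 mM Tris pH 8.0, 300 mM NaCl, 1 mM TCEP; 1 h at 37 C in the dark.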
D2 potentiator = human D2 receptor positive allosteric modulation | potentiation, % (test concentration not listed) | DiscoveRx D2 beta-arrestin cells, luminescence, 90 min; 100% = 57 uM dopamine signal | 360,000 tested, 0.23% active | P14416; active = potentiation of 50% or more; inconclusive = 30% to 50%; inactive = 30% or less;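 also: compound concentration not given in the record; tested on top of an EC20 dose of dopamine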
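PathHunter D2 cells, attached overnight at 37 deg C, received compound in DMSO plus dopamine at EC20 (50 nM final) for 90 min at 37 deg C. Beta-arrestin recruitment was read as luminescence after 1 h with detection reagent at ambient temperature.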
PINK1 modulator = changes PINK1 expression; PINK1 immunofluorescence, high-content cytometry, 24 h; 410,000 tested, 0.2% active; Potency, µM (highest dose often 76.6 µM), for the others: top-dose activation (PINK1 increase), most hits filed as activators; active = well fitted activation curve with a large enough effect; inconclusive = small, poorly fitted or top-dose-only effect; inactive = flat fitted curve, though single readings scatter; cell line not stated here;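 also: potency is read from the fitted curve at half-maximal effect; % of control where 0% means no effect; nearly all actives have a fitted effect of over 65% in size; a mitochondrial uncoupler was the plate control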
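Readout is PINK1 immunofluorescence, quantified alongside mitochondrial, cell and nuclear markers by laser-scanning microplate cytometry. Cells from a stable line were exposed to compound titrations (5 concentrations) for 24 hours, with CCCP controls.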
CtBP-E1A inh = CtBP/E1A binding inhibition. AlphaScreen GST-E1A/His-CtBP binding, 1536-well; hits give low values; control for the full effect not named in the record. activity change, % (no concentration beside the values). 340,000 tested, 0.49% active. AID 651724; in the data active means activity change below about -65%; inconclusive means about -30% to -65%; inactive means above about -30%; also: % is scaled to controls: 0 for no effect and ±100 for the full control effect; compound concentration not given in the record
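In 5 uL wells, 23 nL compound meets equimolar GST-E1A and His-CtBP (5X stock 125 nM each) for 2 h, 37 °C. Beads (5X, 50 ug/mL) then 1 h, 37 °C, dark.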
* hit, by the source's call; [ ] = remark or other dose.

How did O=C(C[C@H]1C/C=C\C[C@H](NC(=O)OCC2c3ccccc3-c3ccccc32)C(=O)O[C@@H](c2ccccc2)CNC1=O)NCCO do in these assays?
D2 ag: -2.7; Six1-Eya2 inh: 3; PINK1 modulator: -0.8%; CtBP-E1A inh: -2

What do the screens show for `CCOC(=O)c1c(-c2ccccc2)[nH]c2ccc(O)cc12`?
D2 ag: -1.9; Sfp inh: 7%; TRPV1 potentiator: -5; Six1-Eya2 inh: -24; D2 potentiator: -16; PINK1 modulator: 1.3%; CtBP-E1A inh: -19

Results for COc1ccc(C(CNC(=O)COc2ccc(F)cc2Cl)N2CCCCC2)cc1 (stereo unspecified) ?
D2 ag: -5.6; TRPV1 potentiator: -8; Six1-Eya2 inh: -3; D2 potentiator: -14; PINK1 modulator: 13%; CtBP-E1A inh: 1

Results for Nc1nc(NCc2ccco2)nc(Nc2ccc(F)cc2)c1[N+](=O)[O-] ?
D2 ag: 5.8; Sfp inh: 6%; TRPV1 potentiator: -12; Six1-Eya2 inh: 1; D2 potentiator: -4; PINK1 modulator: 0.0%; CtBP-E1A inh: 5

What do the screens show for `Cc1ccc(CN2CCC(n3nccc3NC(=O)c3ccccc3C)CC2)o1`?
D2 ag: -1.0; Sfp inh: -6%; TRPV1 potentiator: 7; Six1-Eya2 inh: -7; D2 potentiator: -15; PINK1 modulator: 0.2%; CtBP-E1A inh: -1

What do the screens show for `O=S(=O)(NCC(c1ccco1)N1CCN(c2ccccc2F)CC1)c1ccc2c(c1)OCCO2` (stereo unspecified)?
D2 ag: 1.9; Sfp inh: 11%; TRPV1 potentiator: -3; Six1-Eya2 inh: -9; D2 potentiator: -21; PINK1 modulator: 0.8%; CtBP-E1A inh: -6

Results for CC(=O)c1cccc(NC(=O)c2ccc(N(Cc3ccc(C)cc3)S(C)(=O)=O)cc2)c1 ?
D2 ag: 0.4; Sfp inh: 5%; TRPV1 potentiator: -6; Six1-Eya2 inh: 0; D2 potentiator: 12; PINK1 modulator: 7.3%[38.3 µM]; CtBP-E1A inh: -4

How did C#CCn1c2ccccc2c2nc3ccccc3nc21 do in these assays?
D2 ag: 1.1; Sfp inh: 11%; TRPV1 potentiator: 4; Six1-Eya2 inh: 1; D2 potentiator: -1; PINK1 modulator: -0.2%; CtBP-E1A inh: 9

What do the screens show for `COc1ccccc1-c1nc2ccccc2c(=O)n1NC(=O)c1cccs1`?
D2 ag: -6.0; Sfp inh: 7%; TRPV1 potentiator: 8; Six1-Eya2 inh: 0; D2 potentiator: -1; PINK1 modulator: 3.5%; CtBP-E1A inh: 2

What do the screens show for `C=CCNC(=S)N/N=C/c1ccc(C)s1`?
D2 ag: -0.5; Sfp inh: 10%; TRPV1 potentiator: -2; Six1-Eya2 inh: -4; D2 potentiator: -6; PINK1 modulator: -0.3%; CtBP-E1A inh: -3

How did CC(Oc1ccc2c3c(c(=O)oc2c1)CCCC3)C(=O)NCc1ccncc1 (stereo unspecified) do in these assays?
D2 ag: 5.1; Sfp inh: -2%; TRPV1 potentiator: -20; Six1-Eya2 inh: 3; D2 potentiator: 0; PINK1 modulator: -0.9%; CtBP-E1A inh: 8

What do the screens show for `CCOc1ccc(NC(=O)Nc2ccc(N(C)C(C)=O)cc2)cc1`?
D2 ag: -2.5; Sfp inh: 7%; TRPV1 potentiator: -5; Six1-Eya2 inh: 4; D2 potentiator: -6; PINK1 modulator: 1.7%; CtBP-E1A inh: -6

Brought forward from above: 4 compounds; new compounds follow.
What do the screens show for `COc1ccccc1-c1nc2ccccc2c(=O)n1NC(=O)c1cccs1`?
D2 ag: -6.0; Sfp inh: 7%; TRPV1 potentiator: 8; Six1-Eya2 inh: 0; D2 potentiator: -1; PINK1 modulator: 3.5%; CtBP-E1A inh: 2

What do the screens show for `C=CCNC(=S)N/N=C/c1ccc(C)s1`?
D2 ag: -0.5; Sfp inh: 10%; TRPV1 potentiator: -2; Six1-Eya2 inh: -4; D2 potentiator: -6; PINK1 modulator: -0.3%; CtBP-E1A inh: -3

How did CC(Oc1ccc2c3c(c(=O)oc2c1)CCCC3)C(=O)NCc1ccncc1 (stereo unspecified) do in these assays?
D2 ag: 5.1; Sfp inh: -2%; TRPV1 potentiator: -20; Six1-Eya2 inh: 3; D2 potentiator: 0; PINK1 modulator: -0.9%; CtBP-E1A inh: 8

What do the screens show for `CCOc1ccc(NC(=O)Nc2ccc(N(C)C(C)=O)cc2)cc1`?
D2 ag: -2.5; Sfp inh: 7%; TRPV1 potentiator: -5; Six1-Eya2 inh: 4; D2 potentiator: -6; PINK1 modulator: 1.7%; CtBP-E1A inh: -6

What do the screens show for `CCN(C(=O)COC(=O)c1cc(OC)c(OC)cc1[N+](=O)[O-])C1CCS(=O)(=O)C1` (stereo unspecified)?
D2 ag: -5.3; Sfp inh: 11%; TRPV1 potentiator: -3; Six1-Eya2 inh: 2; D2 potentiator: -3; PINK1 modulator: 1.6%; CtBP-E1A inh: -4

What do the screens show for `CCCCN1C(=O)C(CC(=O)NC2CCCC2)CC(C(=O)N2CCOCC2)=C1C` (stereo unspecified)?
D2 ag: 1.9; Six1-Eya2 inh: 1; PINK1 modulator: 1.7%; CtBP-E1A inh: 6

How did CCC(CC)c1nnc(NC(=O)Cc2c[nH]c3ccccc23)s1 do in these assays?
D2 ag: 1.4; Six1-Eya2 inh: -18; D2 potentiator: -2; PINK1 modulator: 3.5%; CtBP-E1A inh: -2

How did Nc1cc(N)nc(SCC(=O)c2ccc3c(c2)NC(=O)CO3)n1 do in these assays?
D2 ag: 2.4; Sfp inh: -48%; TRPV1 potentiator: -1; Six1-Eya2 inh: -11; D2 potentiator: -8; PINK1 modulator: -2.3%; CtBP-E1A inh: -12

How did COc1ccc(C(=O)N/N=C(\C)CC(=O)NC2CCCCC2)c(OC)c1 do in these assays?
D2 ag: -3.0; Sfp inh: 4%; TRPV1 potentiator: inconclusive; Six1-Eya2 inh: 0; D2 potentiator: -28; PINK1 modulator: 2.4%; CtBP-E1A inh: -2

What do the screens show for `CN(CCCNC(=O)c1ccc(N2CCCC2=O)cc1)c1ccccc1`?
D2 ag: 0.0; Sfp inh: -25%; TRPV1 potentiator: -37; Six1-Eya2 inh: -1; D2 potentiator: -4; PINK1 modulator: -1.1%; CtBP-E1A inh: 1

Results for CCOC(=O)C1CCN(C(=O)COc2cccc(C)c2)CC1 ?
D2 ag: -1.3; Sfp inh: 3%; TRPV1 potentiator: -14; Six1-Eya2 inh: 0; D2 potentiator: 0; PINK1 modulator: -1.7%[38.3 µM]; CtBP-E1A inh: 32

Results for O=c1c2ccccc2ncn1Cc1cccc2ccccc12 ?
D2 ag: -2.7; Sfp inh: -15%; TRPV1 potentiator: 0; Six1-Eya2 inh: 4; D2 potentiator: -3; PINK1 modulator: 2.7%; CtBP-E1A inh: -4

How did CC(=O)c1cccc(CN2CCN(C3CCCCC3)C(CCO)C2)c1 (stereo unspecified) do in these assays?
D2 ag: -2.3; Sfp inh: -1%; TRPV1 potentiator: -1; Six1-Eya2 inh: 2; D2 potentiator: -8; PINK1 modulator: -0.2%; CtBP-E1A inh: 5

Results for COCCNC(=O)c1cc2c(=O)n3cccc(C)c3nc2n(Cc2ccncc2)c1=N ?
D2 ag: -2.7; Sfp inh: 14%; TRPV1 potentiator: 5; Six1-Eya2 inh: -10; D2 potentiator: -15; PINK1 modulator: -0.1%[38.3 µM]; CtBP-E1A inh: -12

How did O=C(Nc1cccc(C(=O)O)c1)Nc1cccc2ccccc12 do in these assays?
D2 ag: 9.1; Sfp inh: 5%; TRPV1 potentiator: 2; Six1-Eya2 inh: 9; D2 potentiator: 0; PINK1 modulator: 0.5%; CtBP-E1A inh: 4

Results for CC(=O)c1cc(C#N)c(Oc2cc(C)cc(C)c2)nc1C ?
D2 ag: 0.1; Sfp inh: 6%; TRPV1 potentiator: -27; Six1-Eya2 inh: 10; D2 potentiator: -3; PINK1 modulator: 3.0%; CtBP-E1A inh: 18

What do the screens show for `CSc1sc(C(=O)N(C)C)c2c1S(=O)(=O)N(C)c1ccccc1-2`?
D2 ag: -2.3; Sfp inh: 14%; TRPV1 potentiator: 1; Six1-Eya2 inh: 4; D2 potentiator: -14; PINK1 modulator: -2.4%; CtBP-E1A inh: 4

What do the screens show for `O=C(Nc1ccc(S(=O)(=O)O)cc1)c1ccc2c(c1)S(=O)(=O)c1ccccc1C2=O`?
D2 ag: 5.9; Six1-Eya2 inh: 0; D2 potentiator: 16; PINK1 modulator: 0.5%; CtBP-E1A inh: -3

How did COc1cccc(CCN2C(=O)CCC3=C2CCC3=O)c1 do in these assays?
D2 ag: -4.6; Six1-Eya2 inh: 0; D2 potentiator: -3; PINK1 modulator: 1.9%; CtBP-E1A inh: 4

What do the screens show for `CCN1C(=O)c2ccc(-c3nc4ccccc4c(=O)o3)cc2C1=O`?
D2 ag: 0.8; Sfp inh: 12%; TRPV1 potentiator: 4; Six1-Eya2 inh: 2; D2 potentiator: 0; PINK1 modulator: 2.6%; CtBP-E1A inh: 4

How did CCOC(=O)N1CCC(NC(=O)c2cc(C(=O)Nc3ccc(F)cc3F)ccc2CO)CC1 do in these assays?
D2 ag: -0.8; Sfp inh: -7%; TRPV1 potentiator: 3; Six1-Eya2 inh: 4; D2 potentiator: -4; PINK1 modulator: 1.7%; CtBP-E1A inh: -2

What do the screens show for `Cc1ccc(S(=O)(=O)N2CCCCC2C(=O)N2CCN(c3ccccc3F)CC2)cc1` (stereo unspecified)?
D2 ag: 1.2; Sfp inh: 10%; TRPV1 potentiator: -4; Six1-Eya2 inh: 1; D2 potentiator: -9; PINK1 modulator: 6.1%[38.3 µM]; CtBP-E1A inh: 3

Results for O=C(N/N=C/c1ccc(-n2ccnc2)cc1)c1cccs1 ?
D2 ag: -1.1; Sfp inh: 18%; TRPV1 potentiator: 1; Six1-Eya2 inh: -12; D2 potentiator: -8; PINK1 modulator: -0.1%; CtBP-E1A inh: -19

What do the screens show for `O=C(Cc1ccc(Cl)cc1)Nc1ccccc1C(=O)Nc1ccc(C(=O)O)cc1`?
D2 ag: -4.9; Sfp inh: -12%; TRPV1 potentiator: 5; Six1-Eya2 inh: -3; D2 potentiator: -6; PINK1 modulator: 1.2%

How did O=C(CC1C(=O)NCCN1Cc1ccccc1)NCCN1CCCCC1=O (stereo unspecified) do in these assays?
D2 ag: -6.4; Sfp inh: -10%; TRPV1 potentiator: 13; Six1-Eya2 inh: -4; D2 potentiator: -9; PINK1 modulator: -0.3%

Random draw from the library, and some 3.7% of all compounds hit somewhere here.
